# MT1-MMP act inh – blockers of MT1-MMP proenzyme processing, primary screen, HT1080 RFP-PRO-GFP cells, GFP/RFP fluorescence; GFP/RFP ratio change, % at 20 µM; GFP/RFP ratio fluorescence, overnight; percent of plate control window, DMSO zero; AID 651647, 2012; 360,000 tested, 0.061% active;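 active = GFP/RFP ratio change of at least 30% with cell ATP level not reduced by more than half and red fluorescence within 50% of control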; note: strong numbers were not always called active
#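 Compound: 20 µM single dose, 1% DMSO / System: HT1080 RFP-PRO-GFP cells / Controls: DMSO and RFP-L50D-GFP cell wells / Read-out basis: GFP/RFP fluorescence ratio / Schedule: overnight compound exposure at 37 °C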
# eIF4H FP inh – human eIF4H binding inhibitors, primary screen, translation initiation inhibitor project, biochemical, uHTS, fluorescence polarization. AID 2012, 2009. inhibition, % at 35 µM. eIF4H fluorescence polarization binding assay. 290,000 tested, 0.94% active. Eukaryotic translation initiation factor 4H (Homo sapiens), Q15056;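 active = 50% or more with normal probe brightness, or confirmed in later tests; inconclusive = above 50% with abnormal brightness, or retests that disagree; inactive = below 50% or failed in later tests; about a fifth of its hits are not listed in these tables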;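 note: calls also rest on retests at 20 µM and on dose response follow-up; 0% = protein and probe with vehicle and 100% = probe without protein; strong numbers were not always called active; many hits fall short of the cut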
# PABP FP inh – PABP poly(A) RNA binding inhibitors, primary screen, biochemical, fluorescence polarization, uHTS | Polyadenylate-binding protein 1 (Homo sapiens), P11940 | inhibition, % at 35 µM | 290,000 tested, 1% active | AID 2014, 2009;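 active = 50% or more with normal probe brightness, or confirmed in later tests; inconclusive = above 50% with abnormal brightness, or retests that disagree; inactive = below 50% or failed in later tests; about a fifth of its hits are not listed in these tables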;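 note: calls also rest on retests at 20 µM and on dose response follow-up; controls were probe without protein and protein plus probe with vehicle; some compounds called inactive have numbers as strong as hits; many hits fall short of the cut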
# Target sequence (P11940 whole entry, looked up): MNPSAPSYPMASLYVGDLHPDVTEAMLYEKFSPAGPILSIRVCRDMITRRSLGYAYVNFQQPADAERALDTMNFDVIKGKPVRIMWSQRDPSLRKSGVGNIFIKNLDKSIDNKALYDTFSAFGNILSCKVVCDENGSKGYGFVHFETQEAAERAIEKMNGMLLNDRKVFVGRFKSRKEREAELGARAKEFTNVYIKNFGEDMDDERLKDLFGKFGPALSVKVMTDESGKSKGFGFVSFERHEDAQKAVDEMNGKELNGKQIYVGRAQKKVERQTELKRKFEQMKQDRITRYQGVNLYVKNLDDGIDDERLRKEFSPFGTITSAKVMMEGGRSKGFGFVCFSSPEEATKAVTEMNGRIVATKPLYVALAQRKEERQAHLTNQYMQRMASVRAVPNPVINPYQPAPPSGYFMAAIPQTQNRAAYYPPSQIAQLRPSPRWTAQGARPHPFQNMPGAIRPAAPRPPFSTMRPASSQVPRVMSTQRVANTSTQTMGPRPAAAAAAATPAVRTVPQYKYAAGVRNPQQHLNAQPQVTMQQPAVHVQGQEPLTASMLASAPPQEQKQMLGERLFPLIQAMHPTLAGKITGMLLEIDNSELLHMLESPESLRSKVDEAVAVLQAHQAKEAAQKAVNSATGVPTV
# UUG fidelity – modulators of yeast start codon fidelity, primary screen, whole organism, S. cerevisiae, single point, plate reader | activity score, % at 18.7 µM | AID 602363, 2012 | 350,000 tested, 0.13% active | S. cerevisiae UUG-firefly luciferase reporter, luminescence/redox ratio;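 active = replicate mean at a twofold rise or more, about +100% in these data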;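 note: firefly luciferase made from a UUG start codon reports start codon fidelity; reporter light over untreated wells divided by growth signal over untreated wells; some hits fall short of that in this replicate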
# Rce1 inh – yeast Rce1p protease inhibitors, primary screen, biochemical, fluorescence, cell-free homogeneous. CAAX prenyl protease 2 (Saccharomyces cerevisiae (strain ATCC 204508 / S288c)), Q03530. yeast membranes, quenched prenylated peptide cleavage fluorescence. calls only. 290,000 tested, 0.27% active. AID 2563, 2010;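 active = fall in fluorescence gain of 50% or more versus controls, with final raw signal at or below 3038400; inconclusive = same 50% fall but final raw signal above 3038400; inactive = fall in fluorescence gain under 50%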;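 note: plate controls were neutral control wells for no effect and wells lacking membranes for full effect; tested at 10 µM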
# CSC inhib – cancer stem cell viability inhibitors, primary screen, luminescence; inhibition, % at 7.5 µM; cancer stem cell-like cells viability; AID 2717, 2010; 300,000 tested, 1.1% active;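 active = mean at 75% or more and at least half the replicates too; inconclusive = mean and replicates disagree; tested in HMLE shEcad cells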;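 note: 0% = median of negative and 100% = median of positive control wells; the first replicate is given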
# Env fusion inh – inhibitors of HIV-1 Env-driven cell-cell fusion, primary screen, HeLa-JRFL effector, CEM21 target cells, luciferase. inhibition, % at 12.3 µM. 360,000 tested, 1.1% active;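 active = mean replicate inhibition score of at least 50 and every replicate individually at or above 50; inconclusive = only one of the two criteria met; inactive = mean below 50 and not all replicates reaching 50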;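 note: 0% = plate neutral controls and 100% = maraviroc near 300 nM; one replicate is shown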
# eIF4H FP inh retest – further read-out of eIF4H FP inh, marked with its call; inhibition, %; compound at 20 µM; confirmation average;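 mean of two retest wells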
# PABP FP inh retest – further read-out of PABP FP inh, marked with its call; inhibition, %; compound at 20 µM; confirmation repeats;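 mean of two retest wells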
# MT1-MMP act inh RFP – second read-out of MT1-MMP act inh, no call of its own (marks repeat the call); RFP signal change, %; measured here: RFP expression control read;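 0 = vehicle wells; hits needed this value within 50% of zero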
# Numbers without * were called inactive; i = inactive; ? = inconclusive; . = no result given; & = joins results of further samples; [ ] = dose if it differs, or a comment. Rows were taken by chance; 2.9% or so of the library scored in one or more.
SMILES,MT1-MMP act inh,MT1-MMP act inh RFP,eIF4H FP inh,PABP FP inh,UUG fidelity,Rce1 inh,CSC inhib,Env fusion inh,others
Cc1cccc(N2CCCn3c2nc2c3c(=O)[nH]c(=O)n2C)c1,9,4,5,14,-7,i,-10,36,
O=C(CCn1cnc2ccccc21)N=Nc1c(O)[nH]c2ccccc12,8,-1,8,10,.,i,-29,-10,
CS(=O)(=O)N(CC(=O)Nc1ccc(S(=O)(=O)N2CCOCC2)cc1)c1cccc(F)c1,0,-2,0,0,-9,i,16,-5,
CCOC(=O)C(=O)c1cn(C2OCC(OC(C)=O)C(OC(C)=O)C2OC(C)=O)c2ccccc12 (stereo unspecified),6,0,-1,-5,.,i,-13,-45,
CCOc1ccc(S(=O)(=O)N2CCC(C(=O)NCc3cccnc3)CC2)cc1Cl,-2,-3,0,-5,-3,i,-5,10,
O=C(CCNC(=O)c1ccco1)Nc1ccccc1OC(F)F,2,3,-16,-4,-15,i,-14,-18,
Cc1cccc(NC(=O)CSc2nc3ccccc3nc2N2CCCC2)c1,10,-13,-14,3,-14,i,25,14,
C/C(=N\NC(=O)c1ccoc1C)c1ccc(Cl)s1,9,8,-11,-10,-5,i,-1,-34,
COc1cccc(NC(C)=[N+](C)CCNS(=O)(=O)c2ccc(Cl)cc2)c1,0,6,72,29,1,i,20,-9,eIF4H FP inh retest=-8;PABP FP inh retest=46
COCCNC(=O)CN1CCN(Cc2cccc(Cl)c2)C1=O,-1,5,-4,-11,-4,i,10,-16,
CCOC(=O)CSc1nnc(C)c(C)n1,7,3,.,.,-9,i,-6,25,
COc1ccccc1N1CCN(C(=O)C(=O)c2c(C)[nH]c3ccccc23)CC1,2,2,-2,8,3,i,-9,4,
CC(C)C(C(=O)O)N1C(=O)/C(=C/c2cccn2C)SC1=S (stereo unspecified),-10,4,?,3,.,.,3,.,
Cc1ccc(NS(=O)(=O)c2cc(NC(=O)c3ccc4c(c3)NC(=O)CS4)ccc2C)c(C)c1,-5,-20,-1,-3,.,i,39,-1,
COc1cccc(NC(=O)NCCC2=CCCCC2)c1,-12,-5,0,5,-4,i,3,-11,
Cc1cc(Cl)c2oc(C(=O)N(C)CC3CCOCC3)c(C)c2c1,1,-4,2,11,-12,i,15,-14,
O=C(NC1CCCCCC1)c1ccc(Cl)c(S(=O)(=O)N2CCOCC2)c1,3,-6,19,-1,-7,i,-2,1,
CCc1ccc(OCC(=O)NCc2ccco2)c(Br)c1,.,.,-1,7,10,i,-4,.,
CCCCNC(=O)c1onc(CSc2ccccc2C)c1C(=O)O,4,2,-6,0,-16,i,-2,.,
CCCn1c(C(O)c2ccc(C)cc2)nc2ccccc21 (stereo unspecified),2,-3,-5,1,-22,i,-21,-8,
COc1ccc(Cc2noc(-c3ccc(C)cc3)n2)cc1,3,1,-1,-4,-10,.,-1,-39,
COC1(OC)N=C(N)C2(C#N)C(c3ccc(F)cc3)C12C#N (stereo unspecified),3,2,-5,-9,-7,i,-10,.,
O=c1cc(CSc2ccc(S(=O)(=O)N3CCCCC3)cn2)nc2sccn12,-9,-7,21,25,-1,.,-8,.,
Cc1cc(SCC(=O)c2cccs2)n2nc(C)c(-c3ccc(Cl)cc3)c2n1,.,.,16,-1,.,i,78*,12,
CC1(C)OC(=O)C(=CNC(CO)C(=O)O)C(=O)O1 (stereo unspecified),4,1,-3,-7,-8,i,-11,-112,
COc1ccc(-c2cc3cc(C(=O)O)ccn3c2C(=O)c2ccccc2)cc1,1,1,-14,2,-10,i,-2,13,
C/C(=N\N1C(C)CCCC1C)c1ccccc1O (stereo unspecified),2,3,-1,-5,-8,i,1,-5,
O=C(Nc1cccc(F)c1)c1ccco1,1,0,-4,-5,-7,i,-6,11,
Cc1c(Cl)cccc1NC(=S)N1CCCN(Cc2ccccc2F)C1,7,-2,-1,2,.,i,4,18,
COc1ccccc1CN1C[C@@H]2C[C@@H](c3[nH]c4ccc(C)cc4c3C)N3CCC[C@@]23C1=O,-15,-13,1,0,1,i,8,18,
O=C(Nc1nnc(Cc2ccccc2)s1)c1ccco1,5,3,6,-8,-13,i,10,-73,
O=C(CNc1cc(S(=O)(=O)N2CCOCC2)ccc1NCC1CCCO1)Nc1ccc(C(F)(F)F)cc1 (stereo unspecified),4,-8,.,.,.,i,9,-27,
CCC(CC)c1nnc(NS(=O)(=O)Cc2ccccc2)s1,10,2,-2,9,-7,i,-10,.,
COc1ccc(C)c2sc(N(CCCN(C)C)C(=O)c3ccc(S(=O)(=O)N(C)C)cc3)nc12,-1,0,-7,1,-6,i,-20,25,
COc1ccc(NC(=O)Nc2cccc3c2O[C@H](CN(C)S(C)(=O)=O)[C@@H](C)CN([C@H](C)CO)C3=O)cc1,-3,3,.,.,1&-12,.,.,-43[16.7 µM],
COc1ccc(S(=O)(=O)NC(=O)C2(C)CCN2C(=O)CCC2CCCC2)cc1OC (stereo unspecified),-4,1,.,.,23,.,.,-11,
CCn1c(SC)nnc1C1CCN(S(=O)(=O)c2ccc(OC)cc2)CC1,5,2,9,6,-13,i,-2,10,
COc1ccc(N2C(=O)CC(N3CCN(Cc4ccc5c(c4)OCO5)CC3)C2=O)cc1 (stereo unspecified),2,3,14,3,.,i,-10,4,
CC(C)(C)c1ccc(-n2ncc3c2CCCC3NC(=O)CCC2=NNC(=O)CC2)cc1 (stereo unspecified),6,-27,.,.,-18,.,.,30,
CCOc1ccc2nc(COC(=O)c3cccs3)c(C(C)=O)[n+]([O-])c2c1,-3,0,11,7,.,i,-23,-7,
FC(F)(F)c1ccccc1NC(=S)N1CCCC1,1,1,-7,1,-17,i,3,12,
O=C(Nc1ccc(F)cc1F)c1ccc2c(=O)n3c(nc2c1)CCC3,0,-1,.,.,-31,.,.,-27,
CC1(C)N=C(SCC(=O)Nc2ccc(Cl)cc2)C(c2ccc(Cl)cc2)=N1,1,-5,5,0,-18,i,39,?,
CCCNC(=O)C1(C)CCCN(C(=O)c2ccc(C)c(F)c2)C1 (stereo unspecified),4,4,.,.,0,.,.,-2,
O=C(OCC(=O)N1CCC(Cc2ccccc2)CC1)c1ccc(O)cc1,0,-5,.,.,-4,.,.,6,
CCCCn1c(C)nc2c(=O)n(C)c(=O)[nH]c21,3,3,-3,4,-10,i,-1,13,
Cc1c(NS(=O)(=O)c2ccc(NCCN3CCOCC3)c([N+](=O)[O-])c2)c(=O)n(-c2ccccc2)n1C,-2,1,7,16,-9,i,-3,9,
CC(=O)NC1N=C(C)N(c2ccccc2)C1=O (stereo unspecified),-8,4,6,9,0,i,-8,.,
COc1ccc(C(=O)c2c(C)oc3cc([N+](=O)[O-])c(O)c([N+](=O)[O-])c23)cc1,23,2,-9,0,-2,i,4,8,
Cc1cc(C)c(S(N)(=O)=O)c(C)c1N(C)S(=O)(=O)c1ccc(Cl)cc1,0,-2,-3,-1,8,i,-13,-33,
COc1cccc(=O)c2c(C)n(CC(=O)c3ccccc3)c(C)c12,-12,6,96,70,-11,i,-5,32,eIF4H FP inh retest=-5;PABP FP inh retest=-6
COc1cccc(NC(=O)CN(C)C(=O)CCNC(=O)c2ccccc2Cl)c1,-4,-3,.,.,12,.,.,0,
O=S(=O)(Nc1ncccn1)c1ccc(NC(=S)NCCc2ccccc2)cc1,13,3,9,13,.,i,-10,14,
CCOC(=O)C(NCCc1ccccc1)(NC(=O)CC)C(F)(F)F (stereo unspecified),1,-4,-14,5,.,i,-4,-3,
COc1ccc(-c2cc(=O)[nH][nH]2)cc1,1,6,4,12,-17,i,-10,.,
O=S(=O)(c1ccc(F)cc1)N1CCn2c(nc3ccccc32)C1,6,6,-14,3,-17,i,-5,23,
O=C(Nc1cccc(Cl)c1)c1csc([C@@H]2C[C@H](O)[C@@H](CO)O2)n1,3,0,.,.,0,.,.,-7,
O=C(NC1CCCCC1)c1c(O)nc2sccn2c1=O,0,1,.,.,43,i,4,-19,
CC(C)(C)C(=O)Nc1nnc(-c2ccccc2)c(-c2ccccc2)n1,1,1,2,6,.,i,4,-8,
O=C(O)c1ccccc1N/N=C/c1cc(Br)cc(Br)c1O,-11,-4,15,24,-22,i,40,-70,
# Next section:
SMILES,MT1-MMP act inh,MT1-MMP act inh RFP,eIF4H FP inh,PABP FP inh,UUG fidelity,Rce1 inh,CSC inhib,Env fusion inh,others
CCc1nc(SCc2ccccc2C#N)n[nH]1,-3,-3,-9,-7,-8,i,.,-18,
CCOC(=O)COc1ccc(S(=O)(=O)NCC2CCCO2)cc1 (stereo unspecified),-4,2,-5,-8,-5,i,-13,.,
O=C(COC(=O)CCc1c[nH]c(=O)[nH]1)Nc1ccccc1Cl,-13,4,11,13,-5,i,-7,-15,
CC(=O)c1cc2c(cc1NC(=O)c1cc(C)nn1-c1ccccc1)OCO2,-5,-7,2,-3,3,i,60,-63,
COc1ccc(C2CC(c3ccc(Br)cc3)=NN2C(=O)CSC2=NN3CCCC(=O)N=C3S2)cc1 (stereo unspecified),1,0,-26,-3,-20,i,-17,.,
Cc1ccc(C(=O)Nc2ncn[nH]2)cc1,-1,1,-4,7,-21,i,-5,-24,
CCCn1c(C)cc(-c2csc(N)n2)c1C,-7,7,122*,122,-8,i,-9,.,eIF4H FP inh retest=76*;PABP FP inh retest=23
S=c1[nH]nc(CNc2cccc(Cl)c2)o1,4,3,-3,-8,.,i,-3,-2,
COc1ccc(NC(=O)Nc2ccc3c(c2)C(=O)N([C@H](C)CO)C[C@@H](C)[C@@H](CN(C)C(=O)C2CCCCC2)OCCCC[C@H](C)O3)cc1,3,0,.,.,7&-8,.,.,-11,
CC(C)(CN1CCCC1)NS(=O)(=O)c1ccc(Cl)cc1,-4,-1,7,1,-6,i,.,-7,
CC(=O)c1c(C)[nH]c(C(=O)N(CCc2ccccc2)Cc2ccccc2)c1C,-27,-26,10,-6,.,i,-5,6,
Cc1cc(Br)cn2c(Cc3ccccc3)c(-c3ccco3)nc12,-4,-6,.,.,-14,.,.,14,
CC(C)C(=O)NC(C)C(c1cccs1)N1CCN(C)CC1 (stereo unspecified),-9,1,-13,-5,-5,i,-2,.,
CSCC[C@H](NC(=O)OC(C)(C)C)C(=O)N/N=C/c1cccc2nccnc12,1,0,-3,-1,.,i,-19,-3,
COc1ccc(OC)c(C2CC(=O)c3c([nH]c(C(=O)OCC4CCCO4)c3C)C2)c1 (stereo unspecified),-6,-24,0,4,-12,i,51,-37,
CCCN1CN(Cc2ccccc2)CC2=C1CC(C)(C)CC2=O,-2,-7,30,8,7,i,-4,-98,
COCCCn1c(C)nnc1SCC(=O)Nc1cccc(C)c1,3,4,-5,-1,-19,i,-10,-5,
CCOc1cc(CNc2ccc3c(c2)CCC3)ccc1O,-2,5,7,20,-24,i,4,-32,

# Bioassay records (PubChem BioAssay)
